# Assay outcomes deposited in PubChem BioAssay by ICCB-Longwood Screening Facility, Harvard Medical School.
# Sa growth inh – inhibitors of Staphylococcus aureus growth at 42 °C; relative growth, % (no concentration beside the values); AID 720641; S. aureus RN4220 growth, OD600, 20 h; stronger effect = lower value; 0.53% of 170,000 active;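 active = growth at 42 °C up to 50% and 20 or more points under that at 30 °C, or under 10% at both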;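 note: 300 nL library stock went into each well; scaled to the means of positive and negative controls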
# GIV Gai3 FP – GIV-Galpha-i interaction inhibition; 0.42% of 210,000 active; percent of control (FP), % (no concentration beside the values); Galpha-i3/FITC-GIV peptide fluorescence polarization, 90 min; stronger effect = lower value; scaled: aluminum fluoride 0%, vehicle 100%;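 active = replicate mean at 85% of control or lower, very high polarization wells dropped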;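 note: wells of about 15 µL received 100 nL stock; the first replicate is given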
# Target sequence (P08753 whole entry, looked up): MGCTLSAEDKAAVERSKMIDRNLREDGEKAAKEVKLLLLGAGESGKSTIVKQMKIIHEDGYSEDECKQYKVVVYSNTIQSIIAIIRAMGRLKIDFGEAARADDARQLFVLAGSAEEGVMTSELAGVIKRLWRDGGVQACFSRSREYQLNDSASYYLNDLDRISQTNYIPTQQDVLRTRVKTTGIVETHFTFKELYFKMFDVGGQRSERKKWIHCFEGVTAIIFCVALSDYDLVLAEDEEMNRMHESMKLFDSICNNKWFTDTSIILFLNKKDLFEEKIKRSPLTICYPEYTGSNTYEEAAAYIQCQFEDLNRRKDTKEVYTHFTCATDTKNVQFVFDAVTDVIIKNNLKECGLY
# HCMV UL50-53 inh – disrupts HCMV UL50-UL53 complex binding | HTRF UL50-UL53 interaction, normalized percent inhibition | inhibition, % (concentration not given with the values) | 0.15% of 190,000 active | AID 1918969;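 active = both replicates at 50% or more, plus weaker picks with an unusually low signal ratio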;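 note: stock transfer was 100 nL into about 20 µL; 0% = negative control wells and 100% = wells with untagged competitor protein; inactives centre near -12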
# Sa growth inh second temp – second read-out of Sa growth inh, no call of its own (marks repeat the call); relative growth, %; measured here: growth at 30 °C;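 optical density after 20 h as mean of two plates; 100% = untreated growth and lower means inhibition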
# An asterisk follows results filed as active; x = not tested or not shown; & = joins results of further samples.
SMILES,Sa growth inh,Sa growth inh second temp,GIV Gai3 FP,HCMV UL50-53 inh
CCN(C(=O)c1cnccc1C(F)(F)F)c1cccc(C)c1C,98,97,109,1
COc1ccc(C2=NN(CCc3ccccn3)C(=O)C2)cc1,101,59,106,18
Cc1ccc(-n2c(=O)c3ccccc3n(CC(=O)Nc3cccc(C(F)(F)F)c3)c2=O)cc1,90,83,102,-5
CCNc1ncnc2oc(C)c(C(=O)OCC)c12,95,90,108&100,-37&1
COCC(C)NC(=O)C1=CC(c2ccc3c(c2)OCO3)=NS(=O)(=O)N1C (configuration not stated),77,79,112,-62
O=C(c1cc2ccccc2s1)N1CCOCC1,95,92,99,x
CCOc1ccc(NC(=O)CCCn2c(=O)c3cccn3c3ccccc32)cc1,103,99,108,20
Cc1cc2nsnc2c(S(=O)(=O)NCC(=O)O)c1C,90,97,104,-48
Cn1ccc(C(=O)N2CCCC2c2ccc(F)cc2)n1 (configuration not stated),x,x,98,-7
C/C(=N\NC(=O)NC1CCCCC1)c1ccc(OC(F)F)cc1OC(F)F,95,90,x,-14
CCOc1ccc(OCC)c(NC(=O)C2CCCN2S(=O)(=O)c2cccc3cccnc23)c1 (configuration not stated),93,92,98,4
CC(=O)Nc1ccc(NC(=O)c2nc(SCc3ccccc3C)ncc2Cl)cc1,91,85,102,-13
O=C(O)CCC(=O)Nc1ccc(S(=O)(=O)Nc2ccc(F)cc2)cc1,92,89,106,-10
Cc1ccc(N=C2NC(=O)CC(C(=O)Nc3cccc4ccccc34)S2)cc1 (configuration not stated),113,84,x,-21
O=C(CSC1=Nc2ccccc2N=C(c2ccccc2)C1)Nc1cccc(Br)c1,x,x,107,-3
Cc1cc(C(=O)OCc2csc(CC(=O)Nc3ccccc3C)n2)c(C)o1,89,88,x,-15
COC(=O)C1SCCN1S(=O)(=O)c1ccc(-c2cc(C(F)(F)F)on2)s1 (configuration not stated),110,94,102,-38
O=C(NCC(c1ccco1)N1CCc2ccccc21)Nc1ccccc1 (configuration not stated),81,81,101,-44
COc1cccc(/C=N/NC(=O)CC2C(=O)NN=C2C)c1O (configuration not stated),87,88,97,-21
O=C(CSc1nc(-c2cccs2)nc2cc(=O)[nH]n12)Nc1ccccc1Cl,83,55,102,x
O=C(Cc1n[nH]c(=O)c2ccccc12)N/N=C/C=C/c1ccccc1,87,83,101,-36
CNC(=O)c1ccsc1NC(=O)c1ccc(F)cc1,80,91,107,-27
O=C1CCCC1Sc1nnc(-c2ccncc2)n1-c1ccc(F)cc1 (configuration not stated),85,71,x,-16
CCSc1nnc(C2CCCN(CC(=O)N3CCN(c4ccccc4)CC3)C2)n1CC (configuration not stated),106,77,102,-5
O=C(CSc1nc2c(c(=O)[nH]1)CCCC2)Nc1ccc(Br)cc1,96,93,99,-21

# Carrying on:
SMILES,Sa growth inh,Sa growth inh second temp,GIV Gai3 FP,HCMV UL50-53 inh
O=C1CCCC2=C1C(c1ccccn1)n1ncnc1N2 (configuration not stated),115,92,108,-24
Cc1cc(NC(=O)Nc2nc3c(s2)CCCCCC3)ccc1Br,82,90,100,x
Cc1ccc(Cn2c(=O)n(Cc3ccco3)c(=O)c3sc4ccccc4c32)cc1,99,92,100,-1
Cc1cc(C)nc(Nc2ccc(S(=O)(=O)Nc3ccccn3)cc2)n1,98,103,109,x
Cc1nnc(NC2=NCCC2)o1,92,82,x,-6
COc1ccc(C(=O)n2c3c(c(=O)n2-c2ccccc2)Cc2ccc(OC)cc2O3)cc1,90,88,104,-42
CCc1ccc(NC(=O)COC(=O)c2ccco2)cc1,106,90,x,15
CC1=C(C(=O)N2CCCCC2)S(=O)(=O)C(NC(=O)CC2CCS(=O)(=O)C2)=C1C#N (configuration not stated),93,88,98,-9
Cc1ccc(-c2nn(-c3ccccc3)cc2/C=C/C(=O)OCC(=O)c2c(N)n(C)c(=O)n(C)c2=O)o1,96,91,x,-20
O=C(COc1nncc2ccccc12)NC1CCS(=O)(=O)C1 (configuration not stated),90,96,x,1
COc1ccc(OCc2ccc(-c3nc(C#N)c(N4CCCCC4)o3)o2)cc1,111,83,100,-26
Cn1c(CN(c2ccc(F)cc2)S(C)(=O)=O)nnc1SCC(N)=O,x,x,102,5
CCOC(=O)c1c(C)c(S(=O)(=O)N2CCN(C)CC2)c(C)n1C,x,x,104,-17
COc1ccc(NC(=O)C(NS(=O)(=O)c2cccc3nsnc23)C(C)C)cc1OC (configuration not stated),105,87,106,-114
OCC1(CO)CSC(Nc2ccc(F)c(Cl)c2)=N1,98,81,93,-16
c1ccc(Oc2ccc(CN3CCCCC3)o2)cc1,92,88,99,-11
CC(=O)N1CCc2cc(C(=O)CN3CC(C)CC(C)C3)ccc21 (configuration not stated),95,85,102,-26
CSc1ncc(Cl)c(C(=O)Nc2ccc(S(=O)(=O)Nc3nccc(C)n3)cc2)n1,103,87,101,-19
Cc1cc(C)nc(NS(=O)(=O)c2ccc(NC(=O)C3CC(=O)N(c4ccccc4)C3)cc2)n1 (configuration not stated),82,85,100,-2
Cc1cc(S(=O)(=O)Nc2cccc(C(=O)O)c2)c(C)c(S(=O)(=O)c2ccccc2)c1,105,96,101,0
O=C(Nc1ccc(C(=O)OCc2cc(=O)n3c4c(sc3n2)CCCC4)cc1)c1ccccc1,90,85,101,x
Cc1sc(-c2noc(C3CC3)n2)cc1S(=O)(=O)N1CCCC(C(=O)N2CCOCC2)C1 (configuration not stated),x,x,104,-4
C=C1CCC(OC(C)=O)C2(C)CCC3C(C)C(=O)OC3C12O (configuration not stated),94,96,103,4
O=c1ccc(-c2ccc3c(c2)OCO3)nn1Cc1nc(-c2ccc(Cl)c(F)c2)no1,x,x,113,8
O=c1c(S(=O)(=O)c2ccc(Cl)cc2)cn(Cc2ccc(F)cc2)c2ccc(F)cc12,88,98,108,10

# 7 of the compounds above, bar-delimited:
canonical_smiles | Sa growth inh | Sa growth inh second temp | GIV Gai3 FP | HCMV UL50-53 inh
c1ccc(Oc2ccc(CN3CCCCC3)o2)cc1 | 92 | 88 | 99 | -11
C=C1CCC(OC(C)=O)C2(C)CCC3C(C)C(=O)OC3C12O (configuration not stated) | 94 | 96 | 103 | 4
CC1=C(C(=O)N2CCCCC2)S(=O)(=O)C(NC(=O)CC2CCS(=O)(=O)C2)=C1C#N (configuration not stated) | 93 | 88 | 98 | -9
CSc1ncc(Cl)c(C(=O)Nc2ccc(S(=O)(=O)Nc3nccc(C)n3)cc2)n1 | 103 | 87 | 101 | -19
Cc1cc(NC(=O)Nc2nc3c(s2)CCCCCC3)ccc1Br | 82 | 90 | 100 | x
COc1ccc(OCc2ccc(-c3nc(C#N)c(N4CCCCC4)o3)o2)cc1 | 111 | 83 | 100 | -26
COc1ccc(NC(=O)C(NS(=O)(=O)c2cccc3nsnc23)C(C)C)cc1OC (configuration not stated) | 105 | 87 | 106 | -114

# (next part)
SMILES,Sa growth inh,Sa growth inh second temp,GIV Gai3 FP,HCMV UL50-53 inh
O=C(/C=C/c1ccco1)NC(=S)NC12CC3CC(CC(C3)C1)C2,114,98,105,-5
Cc1cccc(NC(=O)c2sc3nc4c(cc3c2N)CN(C(C)C)CC4)c1,91,68,105,-117
CC(=O)Nc1ccc(S(=O)(=O)C(C#N)c2nc3ccccc3nc2NCCN2CCOCC2)cc1 (configuration not stated),78,85,x,-30
CCC1CCc2[nH]c(=S)c(C#N)c(C(F)(F)F)c2C1 (configuration not stated),8.0*,5.5*,100,x
COc1ccc(OC(=O)Nc2ccccc2)cc1,115,110,109,5
COc1ccc(NC(=O)c2cnn(-c3ccccc3)c2)cc1,x,x,99,1
CC(C)Oc1ccc(C(=O)N2CCCC2C(=O)O)cc1 (configuration not stated),106,96,103,-17
CCOC(=O)N1CCN(CC(=O)c2ccc(O)c(C)c2O)CC1,92,82,102,-24
COc1ccc(C(=O)Nc2nnc(S(=O)(=O)N3CCC(C)CC3)s2)cc1OC,107,80,103,-3
CC(=O)c1cccc(NC(=O)Cn2nc(C(F)(F)F)c3c2CCC3)c1,98,96,102,-1
COc1ccc(Oc2c(C(F)(F)F)oc3cc(OC(C)C(=O)OC(C)C)ccc3c2=O)cc1 (configuration not stated),x,x,106,-8
O=C(CCn1ccc2cc(S(=O)(=O)N3CCCC3)ccc21)NCc1cccc(Br)c1,119,96,103,x
c1ccc(-c2noc(CSc3ccc(-c4ccc5c(c4)OCO5)nn3)n2)cc1,x,x,110,36
Cc1cc(C)cc(NC(=O)c2cn3c4c(ccc(Cl)c4c2=O)OC(C)C3)c1 (configuration not stated),111,97,118,x
CCc1ccc(NC(=S)N(CCN2CCOCC2)Cc2ccccc2F)cc1,100,75,103,x
O=C(C1CCN(S(=O)(=O)c2ccc(Br)s2)CC1)N1CCN(c2cccc(C(F)(F)F)c2)CC1,89,90,99,-12
CCc1cccc(CC)c1N=C=S,88,98,x,-2
O=C(Cn1nnc(-c2cccc(C(F)(F)F)c2)n1)NCc1ccc(F)cc1,99,92,101,3
CCC(C)Sc1nc2c([nH]c3ccccc32)c(=O)n1C (configuration not stated),121,96,108,x
COC(=O)c1ccc(COC(=O)C2COc3ccccc3O2)cc1 (configuration not stated),96,81,x,-13
CCOc1ccccc1NC(=O)CN1C(=O)/C(=C/c2cc(OC)c(OC)c(OC)c2)SC1=S,x,x,102,-31
CCN(C1CCCCC1)S(=O)(=O)c1ccc(S(=O)(=O)NC2CC2)cc1,128,123,103,9
Cc1ccc(N=Cc2c(O)n(C)c3ccccc23)cc1,88,96,x,-36
CCOC(=O)c1c(C)n(-c2ccccc2)c2c1cc(OC(=O)c1cccc(C)c1)c1ccccc12,x,x,104,-24
CCOC(=O)c1c(CSc2n[nH]c(=O)n2CC)nc2ccccc2c1C,76,92,x,-24

# New compounds follow.
SMILES,Sa growth inh,Sa growth inh second temp,GIV Gai3 FP,HCMV UL50-53 inh
CCCCc1nnc(NC(=O)CCN2C(=O)/C(=C/c3ccc4c(c3)OCO4)SC2=S)s1,x,x,109,5
CCS(=O)(=O)N1CCc2cc(C(=O)Nc3ccc(OC)cc3OC)ccc21,98,92,101,-9
COc1cc(OC)cc(C(=O)N2CCN=C2c2ccccc2)c1,91,81,106,x
CC(=O)OCC1OC(OC(C)(C)C)C(OC(C)=O)C(OC(C)=O)C1OC(C)=O (configuration not stated),98,72,104,17
CCN(CC)CCNC(=O)c1ccc2c(=O)n3nc(Nc4ccccc4)sc3nc2c1,67,50,104,x
CCCn1cnc(N)n1,91,93,99,x
CCN(CC)C(=O)CSc1cc(=O)n(C)c2cc(Cl)ccc12,106,78,102,x
O=C(COc1ccc(Cl)cc1)NCC(c1ccco1)S(=O)(=O)c1ccc(Cl)cc1 (configuration not stated),91,86,97,x
Cc1ccc(C)c(NC(=O)c2ccc3c(c2)CCCN3S(C)(=O)=O)c1,104,84,102,-2
CCCCN(C)C(=O)c1cc(-c2ccc(OC)cc2)n[nH]1,103,84,100,-30
Cc1nc(-c2cccc(N3CC(C(=O)Nc4ccc(Cl)cc4)CC3=O)c2)no1 (configuration not stated),x,x,103,-8
O=C(Cc1cccc(F)c1)NCC(c1cccs1)N1CCOCC1 (configuration not stated),86,82,x,-11
O=C(CSc1oc(-c2cccs2)nc1S(=O)(=O)c1ccccc1)c1ccccc1,90,89,109,x
Cc1c(N(C)S(=O)(=O)c2cccc(C(=O)Nc3ccccc3N3CCOCC3)c2)c(=O)n(-c2ccccc2)n1C,87,100,x,6
Cc1c(Cl)cccc1NC(=O)c1cc2nc(-c3ccc4c(c3)OCO4)cc(C(F)(F)F)n2n1,100,92,106,-47
CCCCN1C(=O)C(NC(C)=O)c2cc(Cl)ccc21 (configuration not stated),95,76,114,-17
Cc1ccc(N2C(=O)c3ccc(C(=O)N(CCO)c4ccccc4)cc3C2=O)cc1C,124,84,x,-13
COc1cccc(Cn2ncc3ccc(C(=O)NCc4ccccc4Cl)cc32)c1,x,x,105,-4
CC(/C=C/c1ccccc1)=N\n1c(C)cc(C)c(C#N)c1=O,123,110,102,x
COc1ccc(CNS(=O)(=O)c2cc(CN3C(=O)C4CCCCC4C3=O)ccc2OC)cc1 (configuration not stated),x,x,103,6
O=C(NCC(c1ccc2c(c1)OCO2)N1CCN(c2ccccc2)CC1)C(=O)Nc1cccc(F)c1 (configuration not stated),109,87,101,x
Cc1nc2ccc3nc(NC(=O)c4ccccc4C)sc3c2s1,100,88,106,x
O=C(Cn1c(=O)nc(-c2ccccc2F)c2cc(Cl)ccc21)N1CCN(c2ccccc2F)CC1,167,102,100,x
CCOc1ccc(-c2cc(OC(=O)c3ccc(OC)cc3)c3c(C)oc(C)c3c(=O)c2)cc1,101,92,107,-77
COc1ccccc1C1CC(=O)NC(C)=C1C(=O)OC1CCCC1 (configuration not stated),99,93,100,x
N#Cc1ccc(Oc2ncc(C(F)(F)F)cc2Cl)cc1,98,105,104,5

# One compound at a time, as listed above. Order of screens: Sa growth inh | Sa growth inh second temp | GIV Gai3 FP | HCMV UL50-53 inh
# Shown for Cc1nc(-c2cccc(N3CC(C(=O)Nc4ccc(Cl)cc4)CC3=O)c2)no1 (configuration not stated) = x | x | 103 | -8
# Shown for CCS(=O)(=O)N1CCc2cc(C(=O)Nc3ccc(OC)cc3OC)ccc21 = 98 | 92 | 101 | -9
